CSC inhib: cancer stem cell inhibition | inhibition, % at 7.5 µM | cancer stem cell-like cells viability, luminescence | hit rate 1.1% among 300,000;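 active = mean at 75% or more and at least half the replicates too; inconclusive = mean and replicates disagree; tested in HMLE shEcad cells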;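 also: 0% = median of negative and 100% = median of positive control wells; the first replicate is given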
MT1-MMP act inh: MT1-MMP (human) activation inhibition | P50281 | HT1080 RFP-PRO-GFP cells, GFP/RFP ratio fluorescence, overnight; percent of plate control window, DMSO zero | GFP/RFP ratio change, % at 20 µM | hit rate 0.061% among 360,000;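 active = GFP/RFP ratio change of at least 30% with cell ATP level not reduced by more than half and red fluorescence within 50% of control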; also: strong numbers were not always called active
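Test system: HT1080 RFP-PRO-GFP cells; Benchmarks: DMSO and RFP-L50D-GFP cell wells; Timing: cells overnight before dosing, compound overnight, 37 °C, 5% CO2; Compound: one 20 µM compound dose with 1% DMSO; Read-out: GFP/RFP fluorescence ratio.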
PABP polyA inh: blocks human PABP binding to poly(A) RNA; P11940; fluorescence polarization; inhibition, % at 35 µM; hit rate 1% among 290,000;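 active = 50% or more with normal probe brightness, or confirmed in later tests; inconclusive = above 50% with abnormal brightness, or retests that disagree; inactive = below 50% or failed in later tests; about a fifth of its hits are not listed in these tables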;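 also: calls also rest on retests at 20 µM and on dose response follow-up; controls were probe without protein and protein plus probe with vehicle; some compounds called inactive have numbers as strong as hits; many hits fall short of the cut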
Target sequence (P11940 whole entry, looked up): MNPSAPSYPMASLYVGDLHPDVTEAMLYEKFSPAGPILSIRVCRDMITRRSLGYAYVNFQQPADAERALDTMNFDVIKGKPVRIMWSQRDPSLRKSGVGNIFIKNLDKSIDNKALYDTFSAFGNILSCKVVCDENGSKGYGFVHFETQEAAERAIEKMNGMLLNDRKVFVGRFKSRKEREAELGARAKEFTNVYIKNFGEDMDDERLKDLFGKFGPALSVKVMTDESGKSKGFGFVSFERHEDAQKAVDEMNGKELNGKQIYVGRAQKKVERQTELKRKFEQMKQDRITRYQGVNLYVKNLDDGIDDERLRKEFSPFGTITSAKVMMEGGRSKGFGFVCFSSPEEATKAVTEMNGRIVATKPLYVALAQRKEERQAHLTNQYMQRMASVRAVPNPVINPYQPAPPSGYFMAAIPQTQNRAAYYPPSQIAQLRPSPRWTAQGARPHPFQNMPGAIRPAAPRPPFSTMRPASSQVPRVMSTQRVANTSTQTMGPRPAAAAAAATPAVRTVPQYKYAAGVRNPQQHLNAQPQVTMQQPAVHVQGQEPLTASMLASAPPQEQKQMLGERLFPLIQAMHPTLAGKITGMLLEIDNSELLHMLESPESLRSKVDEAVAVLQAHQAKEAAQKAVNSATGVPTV
Yeast UUG start: modulators of start codon recognition fidelity in yeast; S. cerevisiae UUG-firefly luciferase reporter, luminescence/redox ratio; activity score, % at 18.7 µM; hit rate 0.13% among 350,000;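 active = replicate mean at a twofold rise or more, about +100% in these data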;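 also: firefly luciferase made from a UUG start codon reports start codon fidelity; reporter light over untreated wells divided by growth signal over untreated wells; some hits fall short of that in this replicate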
Rce1 inhib: inhibitors of yeast Ras-converting enzyme | yeast membranes, quenched prenylated peptide cleavage fluorescence | Q03530 | AID 2563 | hit rate 0.27% among 290,000 | calls only;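 active = fall in fluorescence gain of 50% or more versus controls, with final raw signal at or below 3038400; inconclusive = same 50% fall but final raw signal above 3038400; inactive = fall in fluorescence gain under 50%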;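 also: plate controls were neutral control wells for no effect and wells lacking membranes for full effect; tested at 10 µM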
Env fusion inh: blocks HIV Env-driven cell-cell fusion; HeLa-JRFL Env/CEM21 cell fusion, luciferase; inhibition, % at 12.3 µM; hit rate 1.1% among 360,000;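 active = mean replicate inhibition score of at least 50 and every replicate individually at or above 50; inconclusive = only one of the two criteria met; inactive = mean below 50 and not all replicates reaching 50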;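 also: 0% = plate neutral controls and 100% = maraviroc near 300 nM; one replicate is shown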
eIF4H inh: inhibitors of RNA binding by human eIF4H; AID 2012; Q15056; hit rate 0.94% among 290,000; eIF4H fluorescence polarization binding assay; inhibition, % at 35 µM;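 active = 50% or more with normal probe brightness, or confirmed in later tests; inconclusive = above 50% with abnormal brightness, or retests that disagree; inactive = below 50% or failed in later tests; about a fifth of its hits are not listed in these tables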;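 also: calls also rest on retests at 20 µM and on dose response follow-up; 0% = protein and probe with vehicle and 100% = probe without protein; strong numbers were not always called active; many hits fall short of the cut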
eIF4H inh retest: also measured in eIF4H inh; calls as there; inhibition, %; compound at 20 µM; confirmation average;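 mean of two retest wells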
PABP polyA inh retest: recorded beside PABP polyA inh, whose call it bears; inhibition, %; compound at 20 µM; confirmation repeats;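 mean of two retest wells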
MT1-MMP act inh RFP: further read-out of MT1-MMP act inh, marked with its call; RFP signal change, %; measured here: RFP expression control read;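 0 = vehicle wells; hits needed this value within 50% of zero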
The depositor's hits bear a star; i = inactive; ? = inconclusive; · = not tested or not shown.

SMILES | CSC inhib | MT1-MMP act inh | MT1-MMP act inh RFP | PABP polyA inh | Yeast UUG start | Rce1 inhib | Env fusion inh | eIF4H inh | others
O=C(Cn1c(C(F)(F)F)nc2ccccc21)N/N=C/c1ccco1 | -14 | 3 | 1 | -3 | · | i | 11 | -2
N#CCCN(Cc1cccnc1)C(=S)Nc1ccc(OC(F)F)cc1 | 4 | 4 | 9 | 10 | · | i | -9 | -2
Cc1ccc(C(=O)N2CC(=O)NC(=O)C2)cc1 | -2 | 1 | -1 | 6 | -20 | · | -1 | -8
CC1CN(C(=O)/C=C/c2ccc([N+](=O)[O-])s2)CC(C)O1 (stereo not drawn) | 4 | -4 | -3 | -3 | · | · | -35 | 0
O=C1CCCN1c1ccc(S(=O)(=O)NCc2ccco2)cc1 | · | -2 | -2 | 9 | -17 | i | · | -3
COc1ccccc1NC(=O)COC(=O)c1ccc2c(c1)nc(C)n2-c1ccccc1 | -1 | 1 | 1 | -6 | · | i | -35 | 0
CCOC(=O)C1=C(C)NC(SCC(=O)O)=C(C#N)C1c1ccco1 (stereo not drawn) | · | 3 | 4 | 7 | · | i | · | -3
CCC(CC)C(=O)Nc1ccc(Cl)c(Cl)c1 | -4 | -2 | -4 | 1 | 0 | i | · | -1
CN(C)c1ccc(/C=C/C=N/Nc2nc(N3CCOCC3)nc(N3CCOCC3)n2)cc1 | · | -7 | -2 | 10 | -14 | i | 2 | 11
COc1ccc(NC(=O)CSc2nc3ccccc3nc2N2CCOCC2)c(OC)c1 | -9 | -2 | -1 | 2 | -13 | i | · | -15
CCOC(=O)C1CCN(S(=O)(=O)c2c(C)noc2C)CC1 | 16 | -1 | 4 | 1 | -2 | i | -3 | -3
c1ccc(C2c3[nH]c4ccccc4c3CCN2Cc2cccn2-c2cccnc2)nc1 (stereo not drawn) | 0 | -3 | -4 | 24 | · | i | -12 | 29
CCOC(=O)c1nc(Nc2ccc(Nc3ccccc3)cc2)c2ccccc2n1 | · | 10 | -5 | -6 | · | i | 13 | 4
CSc1ccccc1C(=O)OCC(=O)Nc1c(C)n(C)n(-c2ccccc2)c1=O | · | 0 | 1 | · | -1 | · | -8 | ·
COCCNC(=O)c1c[nH]c2ccc(S(=O)(=O)N3CCOCC3)cc2c1=O | 9 | 1 | 2 | -3 | 0 | i | 2 | -11
C[N+](C)(C)CC(=O)N1CCN(c2ccc3ccccc3n2)CC1 | 0 | -3 | 2 | 4 | -10 | i | 11 | -4
COC(=O)[C@H](Cc1c[nH]c2ccccc12)NC(=O)Cc1c[nH]c2ccccc12 | -9 | 1 | 2 | 2 | -11 | i | -1 | 9
O=C(Cc1c(F)cccc1Cl)NCCCn1ccnc1 | 8 | -4 | -2 | 1 | -23 | i | -34 | -2
COc1ccc(CN2[C@@H](CC(=O)O)c3cc(F)ccc3S2(=O)=O)cc1 | -7 | 1 | 5 | · | -8 | i | -3 | ·
COc1ccc(NCC(O)COc2ccc(C(C)(C)C)cc2)cc1 (stereo not drawn) | 25 | 16 | -5 | 16 | · | i | -14 | -2
O=C(NCCCN1CCOCC1)C(=O)NCc1ccco1 | -12 | 2 | 6 | -19 | · | i | 1 | -4
Cc1c(C)c2cc(Cl)c(OCC(=O)NCCCN3CCCC3=O)cc2oc1=O | · | -1 | 0 | · | 0 | · | -72 | ·
CC1Cc2ccccc2N1C(=O)CCNS(=O)(=O)c1cccc2nsnc12 (stereo not drawn) | 13 | 12 | -1 | 8 | 8 | i | · | -7
Cc1cccc(-c2cnn(-c3ccccc3)c2N)c1 | 9 | -2 | -3 | 1 | -29 | i | -33 | -2
Cc1cc([N+](=O)[O-])nn1CC(=O)NCc1nc2ccccc2[nH]1 | -1 | 3 | 1 | 45 | · | · | -3 | 1
Cc1ccc(NC(=O)c2sc(=S)n(-c3cc(C)ccc3F)c2N)cc1 | 6 | 3 | -3 | 2 | 1 | i | -4 | 4
CCCCN(C=O)c1c(CC)nc2ccc(C(=O)NCc3ccc4c(c3)OCO4)cn12 | · | 0 | 1 | · | -15 | · | 0 | ·
O=C(Cn1nc(-c2nn(CC(=O)c3ccccc3)c3[n+]2CCCCC3)[n+]2c1CCCCC2)c1ccccc1 | 0 | -4 | 1 | 23 | 6 | i | 8 | 35
COc1ccccc1NC(=O)CN1C(=O)C2(OCCCO2)c2ccccc21 | 18 | 1 | 1 | 7 | · | i | · | -6
Cc1cccc(NC(=O)C(CC(C)C)NC(=O)C2CCC(C)CC2)n1 (stereo not drawn) | -6 | 0 | 2 | ? | · | i | -2 | 1
CSc1nn2cc(CCN3CCOCC3)c(-c3ccc(F)cc3)nc2c1C#N | -6 | 4 | 3 | -11 | · | i | -13 | -4
COc1ccc(C(CNC(=O)c2cc3c(s2)CCC(C)C3)N2CCOCC2)cc1 (stereo not drawn) | -8 | 5 | 2 | · | 2 | · | · | ·
COC(=O)c1cc(NC(=O)c2ccccc2)c(=O)oc1C/C=N\OCc1ccc(Cl)cc1Cl | -9 | -125 | 6 | 87* | -8 | i | · | 72*
CN(C)CCn1cnc2c1c(=O)[nH]c(=O)n2Cc1ccccc1 | -21 | -1 | 3 | 8 | -17 | i | 9 | -10
CC(C)C[C@H](NC(=O)N1c2ccccc2NC(=O)[C@@H]1C(C)C)C(=O)N1CCC[C@@H]1C(=O)O | -9 | 3 | 1 | -3 | -5 | i | · | 9
COc1cc(NC(=O)CSc2nc(C)c(C)c(C)n2)c(C)cc1[N+](=O)[O-] | 7 | 0 | 3 | -1 | 2 | i | · | -4
C/C(=N/NS(=O)(=O)c1ccc(Cl)cc1)c1cccc(NC(=O)c2ccc(Cl)cc2Cl)c1 | 16 | 6 | 2 | -5 | -18 | i | · | 1
O=C(CCl)N(CCCNC(=O)C(F)(F)F)c1ccc([N+](=O)[O-])cc1 | 17 | 2 | 0 | 8 | 5 | · | -15 | -7
O=C(NNC(=S)Nc1cccc(C(F)(F)F)c1)c1ccccc1Cl | 27 | 8 | -4 | -2 | -40 | i | · | 19
Cc1ccsc1C(=O)N1CCC1(C)C(=O)NS(=O)(=O)c1ccc(Br)cc1 (stereo not drawn) | · | 2 | 2 | · | -2 | · | -1 | ·
Cc1cc2ncn(CS(C)(=O)=O)c2cc1C | -18 | -2 | -1 | -5 | · | · | 20 | -7
Cc1nc(NC(=O)C(Cl)Cl)sc1C(=O)N(C)C | -4 | 1 | 7 | 10 | · | i | -17 | 13
Cc1ccc(-c2noc(CCC(=O)NCCc3ccccc3Cl)n2)cc1 | -5 | 6 | -8 | -2 | 16 | · | · | 1
COc1ccc(-c2noc(CCC(=O)Nc3cccc(C)c3)n2)cc1 | -8 | -1 | -8 | -10 | 4 | i | · | 3
CC1CCCCN1C(=O)CSc1nc2ccccc2n1CC(=O)N1CCc2ccccc21 (stereo not drawn) | 4 | 3 | -1 | -5 | -3 | i | -38 | -5
Cc1ccc(CN2CCN(/N=C/c3ccc(C(F)(F)F)cc3)CC2)c(C)c1 | 12 | 0 | -2 | 4 | 2 | i | · | -2
CCOc1cc2[nH]c(=O)n(CCCCC(=O)NCc3ccco3)c(=O)c2cc1OCC | -7 | 1 | -3 | 5 | 0 | i | 11 | 6
COc1ccc(C(=O)C2CCCN(C(=O)c3csc(C(C)=O)c3)C2)c(C)c1 (stereo not drawn) | -11 | -3 | -1 | -2 | -12 | i | -6 | -11
Cc1ccc(C2=NC3(CCCCC3)N=C2SCC(=O)Nc2ccc3c(c2)OCCO3)cc1 | 18 | -2 | -2 | -5 | -14 | i | -10 | -3
Cc1cc(=O)oc2cc(OCC(=O)N/N=C/c3cc([N+](=O)[O-])ccc3O)ccc12 | 18 | 7 | 7 | -3 | · | i | -43 | 91 | eIF4H inh retest=49;PABP polyA inh retest=42
CC(Sc1nnc(-c2ccccc2F)n1N)C(=O)NCC1CCCO1 (stereo not drawn) | 0 | 2 | 3 | · | · | i | · | ·
O=C1CCCC2=C1C(c1ccc(O)cc1)c1c(ccc3ccccc13)N2 (stereo not drawn) | -17 | 1 | -1 | -2 | -6 | i | 2 | 2
CSc1ncccc1C(=O)Nc1cccc(S(=O)(=O)N2CCOCC2)c1 | -13 | -3 | 0 | · | 3 | · | · | ·
O=C1c2ccc3c4c(ccc(c24)C(=O)N1c1ccc2ccccc2c1)CC3 | -15 | -2 | -1 | -5 | -2 | i | 28 | -5
COc1ccc(NC(=O)c2ccc(Cc3ccc(C)cc3)o2)cc1 | 15 | 0 | -1 | 0 | -14 | i | 11 | 12
Cc1occc1-c1nnc(SCC(=O)N2CCCCC2C)o1 (stereo not drawn) | -14 | 0 | -1 | · | 1 | · | -22 | ·
Cc1cc(OC(C)C(=O)NCc2ccccn2)c2c(C)cc(=O)oc2c1 (stereo not drawn) | -8 | 0 | 2 | 1 | -16 | i | 1 | -8
O=C(NC(=S)Nc1ccc(-c2ccccc2)cc1)c1ccccc1 | · | 4 | 0 | · | -15 | · | -23 | ·
CC1(C(=O)Nc2ccc3c(c2)OCO3)Cc2c(-c3cccc(C(F)(F)F)c3)ccnc2O1 (stereo not drawn) | · | -1 | -9 | · | -14 | · | -107 | ·
CCCC(=O)Nc1ccc(NC(=S)NC(=O)c2ccccc2[N+](=O)[O-])cc1 | 44 | 0 | 4 | 17 | · | i | -26 | -6

2 consecutive records out of the list so far, for reference:
SMILES | CSC inhib | MT1-MMP act inh | MT1-MMP act inh RFP | PABP polyA inh | Yeast UUG start | Rce1 inhib | Env fusion inh | eIF4H inh | others
Cc1cc2ncn(CS(C)(=O)=O)c2cc1C | -18 | -2 | -1 | -5 | · | · | 20 | -7
Cc1nc(NC(=O)C(Cl)Cl)sc1C(=O)N(C)C | -4 | 1 | 7 | 10 | · | i | -17 | 13

(further entries)
SMILES | CSC inhib | MT1-MMP act inh | MT1-MMP act inh RFP | PABP polyA inh | Yeast UUG start | Rce1 inhib | Env fusion inh | eIF4H inh | others
C=CCn1cnc2scc(-c3ccc(C)cc3)c2c1=O | 14 | -2 | -2 | 1 | -11 | i | -82 | -7
CCC(C)NC(=O)C(Cc1ccccc1)n1cccc1 (stereo not drawn) | 2 | 2 | 5 | -7 | -13 | i | -27 | -1
Cc1ccc2nsnc2c1NC(=O)COc1ccccc1 | -4 | 0 | 0 | -4 | 6 | i | 21 | -8
COc1ccc(CC(=O)NCc2ccco2)cc1OC | 3 | -2 | 0 | 14 | -4 | i | · | 10
CC1C/C(=N/Nc2ccc([N+](=O)[O-])cc2[N+](=O)[O-])CC(C)(C)C1 (stereo not drawn) | 71 | 10 | 4 | 1 | -2 | i | -51 | 1
O=C(CN1CCCCC1)Nc1cc(Cl)ccc1Cl | 25 | 4 | -1 | 21 | 3 | i | · | 2
O=C(c1ccncc1)N1CCN(S(=O)(=O)c2ccc(OC(F)(F)F)cc2)CC1 | -17 | 6 | 0 | · | -1 | · | 3 | ·
CN(C)CCNC(=O)c1cc(Br)ccc1Cl | -13 | -6 | -1 | -6 | 0 | i | · | -11
COc1ccc(CCNC(=O)CN2C(=O)NC3(CCCCC3)C2=O)cc1 | -23 | 1 | -2 | · | -18 | · | · | ·
C=CC(=O)N=c1sc2ccccc2n1-c1ccccc1 | 48 | -16 | -12 | 7 | -17 | · | -66 | 8
Cc1cccc(NC(=O)C2CCCN2S(=O)(=O)c2ccc3c(c2)n(C)c(=O)c(=O)n3C)c1 (stereo not drawn) | -11 | -3 | 5 | -2 | -4 | i | -3 | 5
CCCN1CCC(N2CCCC(C(=O)O)C2)CC1 (stereo not drawn) | -4 | -2 | -8 | 15 | -23 | i | 4 | 2

Source: PubChem (several laboratories)

Only part of the results is shown (hit frequency here may not be typical).
